Sa ugtP lethal: growth inhibition of ugtP-null S. aureus, primary screen, RN4220 ugtP deletion, OD600. 16 h; some inactives read as strong as hits. growth inhibition, % (test concentration not listed). hit rate 0.54% among 330,000;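 active = z-score under -3 and OD600 up to 0.15 on both plates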;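 note: plate controls were untreated wells for no effect and antibiotic for full effect; wells of about 80 µL received 100 nL stock; the first replicate is given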
BJeLR lethal: MLPCN primary cell-based screen for lethality selective to Ras in HRASV12 cells; BJeLR (HRASV12) viability, CellTiter-Glo ATP luminescence, 48 h; reference of the scale not given here; inhibition, % (test concentration not listed); hit rate 0.17% among 300,000;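 active = replicate mean above 50%; inconclusive = above 50% but judged a plate artefact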;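 note: 50 nL library stock added to about 25 µL; numbers are from one replicate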
Autofluor counter: counter-screen for toxin protease inhibitors: compound fluorescence; compound autofluorescence counterscreen, microsphere flow cytometry; hits give high values; fluorescence intensity (concentration not given with the values); hit rate 3.1% among 360,000; AID 624483;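 active = at least 3 SD above the mean of all compounds, about 16000 in these data; inconclusive = too few beads counted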;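 note: 100 nL of 1 mM stock went into each well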
RN4220 kill: growth inhibition of S. aureus RN4220, primary screen, OD600; 16 h; inhibition, % (no concentration beside the values); hit rate 0.33% among 330,000; AID 1259311, 2017;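 active = z-score of -3 or lower and OD600 up to 0.18 on both plates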;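 note: plate controls were untreated cells for no effect and reference antibiotic for full effect; stock transfer was 100 nL into about 80 µL; one replicate is shown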
Mtb hypoxia inh: PubChem AID 1159583; hit rate 0.1% among 300,000; M. tuberculosis hypoxia-regulated fluorescent reporter, fluorescence; fluorescence inhibition, % (no concentration beside the values);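 active = 35 to 45% if threefold the growth effect, above 45% if 1.5-fold the growth effect; inactive = the rest, general growth blockers included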;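 note: wells of about 50 µL received 100 nL stock; 0% = vehicle wells and 100% = reference inhibitor wells; whole bacteria with a GFP reporter of the hypoxia response; strong numbers were not always called active; many hits fall short of the cut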
PrP 5UTR inh: inhibition of PrP 5' UTR reporter expression | inhibition, % (concentration not given with the values) | AID 488862, 2010 | cell-based PrP 5' UTR mRNA reporter, plate reader | hit rate 0.35% among 340,000;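 active = every replicate at 50% or more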;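 note: 0 = median of the neutral control wells; tested in H4 reporter cells; numbers are from one replicate; inactives centre near -14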
Mtb hypoxia inh growth: further read-out of Mtb hypoxia inh, marked with its call; growth inhibition, %; measured here: M. tuberculosis growth (absorbance);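 0% = vehicle and 100% = reference antibiotic; read after six days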
Starred values were filed as active, the others as inactive.

`COc1ccc(CCC(=O)NC2CCCN(Cc3ccc(Cl)cc3)C2)cc1OC` (stereo not drawn) gave Sa ugtP lethal -2, BJeLR lethal -2, Autofluor counter 4546, RN4220 kill 3.1, Mtb hypoxia inh -2, PrP 5UTR inh -17 and Mtb hypoxia inh growth 6.
Screening COc1ccc(-c2cc(C(F)F)n3ncc(C(=O)NCC4CCCO4)c3n2)cc1 (stereo not drawn) returned Sa ugtP lethal -6, BJeLR lethal 5, Autofluor counter 2583, RN4220 kill 12, Mtb hypoxia inh 5, PrP 5UTR inh -1 and Mtb hypoxia inh growth 6.
Screening O=C(/C=C/c1ccco1)Nc1ccc(Oc2ccc(Cl)cc2)cc1 returned BJeLR lethal 20, Autofluor counter 2981 and PrP 5UTR inh -18.
For CCOC(=O)NN=C(C)c1cccc(-n2cnnn2)c1 the results were Sa ugtP lethal -6, RN4220 kill 1.1, Mtb hypoxia inh 1 and Mtb hypoxia inh growth 5.
`CCCCn1c(N)c(Sc2ccc([N+](=O)[O-])cc2)c(=O)[nH]c1=O` gave Sa ugtP lethal -1, BJeLR lethal -14, Autofluor counter 2848, RN4220 kill -2.6, Mtb hypoxia inh -7, PrP 5UTR inh -18 and Mtb hypoxia inh growth -2.
Screening COc1cc(F)cc(-c2ccc3c(c2)c(C#Cc2ccsc2)c(-c2cc(OC)cc(OC)c2)n3C)c1 returned Sa ugtP lethal -4, Autofluor counter 3897, RN4220 kill 7.1, Mtb hypoxia inh 9, PrP 5UTR inh -12 and Mtb hypoxia inh growth 0.
Screening CCN(CC)S(=O)(=O)c1ccc(N2CCOCC2)c(NS(=O)(=O)c2ccc(OC)cc2)c1 returned Sa ugtP lethal -2, BJeLR lethal 7, Autofluor counter 3899, RN4220 kill 3.0, Mtb hypoxia inh -6, PrP 5UTR inh -2 and Mtb hypoxia inh growth 9.
`CCCc1c(C)nn(C(=O)C(C#N)=NNc2ccccc2[N+](=O)[O-])c1C` gave Sa ugtP lethal -1, RN4220 kill 4.0, Mtb hypoxia inh 4 and Mtb hypoxia inh growth 6.
Screening O=S(=O)(NCc1ccccn1)c1ccc2c(c1)OCCO2 returned Sa ugtP lethal 4, BJeLR lethal -1, Autofluor counter 3355, RN4220 kill 3.9 and PrP 5UTR inh -17.
`CCOC(=O)CSc1nc2c(sc(=S)n2CCc2ccccc2)c(=O)n1Cc1ccco1` gave Sa ugtP lethal -6, BJeLR lethal 0, Autofluor counter 16431*, RN4220 kill 1.8, Mtb hypoxia inh 6, PrP 5UTR inh -7 and Mtb hypoxia inh growth 1.
`CCOC(=O)c1c(C)c(C(=O)NCc2ccc3c(c2)OCO3)c(C)n1C` gave Sa ugtP lethal 8, BJeLR lethal -9, Autofluor counter 16759*, RN4220 kill 4.0, Mtb hypoxia inh 3, PrP 5UTR inh -12 and Mtb hypoxia inh growth 9.
Screening Cc1c(NC(=O)c2cc(Br)ccc2Cl)cccc1-n1cnnn1 returned Sa ugtP lethal -2, Autofluor counter inconclusive, RN4220 kill -1.2, Mtb hypoxia inh -5 and Mtb hypoxia inh growth 10.
Screening CCC1Sc2ccc(S(=O)(=O)CCC(=O)NCc3ccc(C)o3)cc2NC1=O (stereo not drawn) returned Sa ugtP lethal 10, BJeLR lethal 2, Autofluor counter 5501, RN4220 kill -2.5, Mtb hypoxia inh 6, PrP 5UTR inh -11 and Mtb hypoxia inh growth 5.
CN(C1CCCCC1)S(=O)(=O)c1ccc(NC(=O)C2CCCCC2)cc1 was read as Sa ugtP lethal -13, BJeLR lethal 6, Autofluor counter 11190, RN4220 kill -1.5, Mtb hypoxia inh 2 and Mtb hypoxia inh growth 16.
`O=C(c1cccs1)N1CCN(c2ccc(F)cc2)CC1` gave Sa ugtP lethal -1, BJeLR lethal -11, Autofluor counter 2912, RN4220 kill -6.6 and PrP 5UTR inh -11.
For O=C(CSc1nnc(SCc2ccccc2)s1)NN=Cc1c[nH]c2ccccc12 the results were Sa ugtP lethal 7, RN4220 kill -0.4, Mtb hypoxia inh -1 and Mtb hypoxia inh growth 10.
O=C(COc1ccc2c3c(c(=O)oc2c1)CCC3)NCc1cccnc1 was read as Sa ugtP lethal 2, BJeLR lethal 1, Autofluor counter 5112, RN4220 kill 1.1, Mtb hypoxia inh 14, PrP 5UTR inh -7 and Mtb hypoxia inh growth 1.
For Cc1ccc(C(=O)O)cc1S(=O)(=O)N1CCSCC1 the results were Sa ugtP lethal -3, BJeLR lethal -11, Autofluor counter 4449, RN4220 kill -0.3, Mtb hypoxia inh -17, PrP 5UTR inh -4 and Mtb hypoxia inh growth 11.
For O=C(N/N=C/c1ccc(-c2ccccc2C(=O)O)o1)c1cccs1 the results were BJeLR lethal -6, Autofluor counter 2875 and PrP 5UTR inh -2.
`N#Cc1c(-c2ccco2)cc(-c2ccc(F)cc2)nc1N` gave Sa ugtP lethal -8, BJeLR lethal -13, Autofluor counter 5915, RN4220 kill 0.8 and PrP 5UTR inh 4.
CCOCCCn1c(SCC(=O)Nc2ccc(OC)cc2)nc2ccccc2c1=O was read as Sa ugtP lethal -5, BJeLR lethal 6, Autofluor counter 3192, RN4220 kill -6.1, Mtb hypoxia inh -9, PrP 5UTR inh -19 and Mtb hypoxia inh growth -14.
Cc1sc2c(c1C)C(c1cccs1)=NCC(=O)N2CC(=O)NCc1cccs1 was read as Sa ugtP lethal -7, BJeLR lethal -1, Autofluor counter 13182, RN4220 kill 1.9, Mtb hypoxia inh -3, PrP 5UTR inh 1 and Mtb hypoxia inh growth 1.
Clc1ccc(NCc2cccnc2)c(Cl)c1 was read as Sa ugtP lethal 10, BJeLR lethal 5, Autofluor counter 3590, RN4220 kill 5.3, Mtb hypoxia inh 12 and Mtb hypoxia inh growth 7.
COc1cccc(C(=O)Nc2cnc(NC(=O)c3ccco3)cc2C)c1 was read as Sa ugtP lethal 2, BJeLR lethal -5, Autofluor counter 4698, RN4220 kill 4.5, Mtb hypoxia inh 4, PrP 5UTR inh 5 and Mtb hypoxia inh growth 0.
For FC(F)(F)c1cc(C(F)(F)F)c2ccc(N/N=C/c3ccccc3)nc2n1 the results were BJeLR lethal -6, Autofluor counter 2796 and PrP 5UTR inh -13.
For COc1ccc(-n2cnnc2SC(C)C(=O)Nc2cccc([N+](=O)[O-])c2)cc1 (stereo not drawn) the results were Sa ugtP lethal -2, BJeLR lethal -2, Autofluor counter 2569, RN4220 kill 4.1, Mtb hypoxia inh 13, PrP 5UTR inh -35 and Mtb hypoxia inh growth 4.
For Cc1ccc(NC(=O)Cn2c(=O)oc3ccccc32)cc1Cl the results were Sa ugtP lethal -4, BJeLR lethal 2, Autofluor counter 3983, RN4220 kill -1.8, Mtb hypoxia inh 14, PrP 5UTR inh -9 and Mtb hypoxia inh growth 5.
`Cc1cccc(C(=O)Nc2cccnc2Cl)c1` gave BJeLR lethal 6, Autofluor counter 2572 and PrP 5UTR inh -15.
Screening C=CCON1C(=O)c2ccccc2C1=O returned Sa ugtP lethal 2, BJeLR lethal -3, Autofluor counter 2981, RN4220 kill 3.3, Mtb hypoxia inh -10, PrP 5UTR inh -7 and Mtb hypoxia inh growth 1.
For COC(=O)c1sccc1NC(=O)c1cccs1 the results were Sa ugtP lethal -1, BJeLR lethal 9, Autofluor counter 5000, RN4220 kill 9.0, Mtb hypoxia inh 3, PrP 5UTR inh -21 and Mtb hypoxia inh growth 5.
CSCC[C@H](NC(=O)[C@H](Cc1ccccc1)n1c(=O)[nH]c2ccccc2c1=O)C(=O)N1CCC(C(=O)O)CC1 was read as Sa ugtP lethal 3, BJeLR lethal 12, Autofluor counter 4307, RN4220 kill 4.2 and PrP 5UTR inh 8.
For Clc1cccc(C[n+]2cc(-c3ccccc3)n3c2CCC3)c1 the results were Sa ugtP lethal -1, BJeLR lethal 1, Autofluor counter 2600, RN4220 kill 2.9, Mtb hypoxia inh 9, PrP 5UTR inh -3 and Mtb hypoxia inh growth 11.
Screening NS(=O)(=O)c1ccc(CCNC(=O)CN2CCN(c3ccccc3F)CC2)cc1 returned Sa ugtP lethal 7, BJeLR lethal 1, Autofluor counter 2642, RN4220 kill 2.8, Mtb hypoxia inh 5, PrP 5UTR inh -47 and Mtb hypoxia inh growth 1.
For O=c1cc(CSc2ccccc2)[nH]c2ccccc12 the results were Sa ugtP lethal -1, BJeLR lethal -9, Autofluor counter 4038, RN4220 kill -0.6, Mtb hypoxia inh -4, PrP 5UTR inh -13 and Mtb hypoxia inh growth -3.
Screening CCOC(=O)C1=C(C)N(CCO)C(=O)NC1c1ccccc1 (stereo not drawn) returned Sa ugtP lethal 9, BJeLR lethal -3, Autofluor counter 8416, RN4220 kill 3.6, Mtb hypoxia inh 8, PrP 5UTR inh -5 and Mtb hypoxia inh growth 4.
For Cc1cccn2cc(CNC(=O)c3ccco3)nc12 the results were Sa ugtP lethal 3, BJeLR lethal -7, Autofluor counter 3349, RN4220 kill 3.3, Mtb hypoxia inh 12, PrP 5UTR inh -9 and Mtb hypoxia inh growth 6.

A draw from above in order of heavy-atom count, largest number first:
Screening NS(=O)(=O)c1ccc(CCNC(=O)CN2CCN(c3ccccc3F)CC2)cc1 returned Sa ugtP lethal 7, BJeLR lethal 1, Autofluor counter 2642, RN4220 kill 2.8, Mtb hypoxia inh 5, PrP 5UTR inh -47 and Mtb hypoxia inh growth 1.
For COc1ccc(-n2cnnc2SC(C)C(=O)Nc2cccc([N+](=O)[O-])c2)cc1 (stereo not drawn) the results were Sa ugtP lethal -2, BJeLR lethal -2, Autofluor counter 2569, RN4220 kill 4.1, Mtb hypoxia inh 13, PrP 5UTR inh -35 and Mtb hypoxia inh growth 4.
For FC(F)(F)c1cc(C(F)(F)F)c2ccc(N/N=C/c3ccccc3)nc2n1 the results were BJeLR lethal -6, Autofluor counter 2796 and PrP 5UTR inh -13.
For Cc1ccc(NC(=O)Cn2c(=O)oc3ccccc32)cc1Cl the results were Sa ugtP lethal -4, BJeLR lethal 2, Autofluor counter 3983, RN4220 kill -1.8, Mtb hypoxia inh 14, PrP 5UTR inh -9 and Mtb hypoxia inh growth 5.
For O=c1cc(CSc2ccccc2)[nH]c2ccccc12 the results were Sa ugtP lethal -1, BJeLR lethal -9, Autofluor counter 4038, RN4220 kill -0.6, Mtb hypoxia inh -4, PrP 5UTR inh -13 and Mtb hypoxia inh growth -3.
For COC(=O)c1sccc1NC(=O)c1cccs1 the results were Sa ugtP lethal -1, BJeLR lethal 9, Autofluor counter 5000, RN4220 kill 9.0, Mtb hypoxia inh 3, PrP 5UTR inh -21 and Mtb hypoxia inh growth 5.
Screening C=CCON1C(=O)c2ccccc2C1=O returned Sa ugtP lethal 2, BJeLR lethal -3, Autofluor counter 2981, RN4220 kill 3.3, Mtb hypoxia inh -10, PrP 5UTR inh -7 and Mtb hypoxia inh growth 1.

The listing continues:
Screening CN1C(C(=O)N2CCc3ccccc3C2)=CC(c2ccc(F)cc2)=NS1(=O)=O returned Sa ugtP lethal -3, BJeLR lethal -9, Autofluor counter 5540, RN4220 kill -0.8, Mtb hypoxia inh 6, PrP 5UTR inh 1 and Mtb hypoxia inh growth 6.
For Cc1nnc(SCC(=O)NC2CC2)n1CC1CCCO1 (stereo not drawn) the results were Sa ugtP lethal 10, BJeLR lethal 11, Autofluor counter 4581, RN4220 kill 2.2, Mtb hypoxia inh 12, PrP 5UTR inh -6 and Mtb hypoxia inh growth 4.
CCN(CC1COc2ccccc2O1)C(=O)CN1C(=O)NC(C)(c2ccc(C)cc2)C1=O (stereo not drawn) was read as Sa ugtP lethal 0, BJeLR lethal 12, Autofluor counter inconclusive, RN4220 kill 4.1, Mtb hypoxia inh -24, PrP 5UTR inh 9 and Mtb hypoxia inh growth -23.
For Cc1cccc(Oc2ccc(NC(=O)c3ccccc3C(=O)O)cc2)c1C the results were Sa ugtP lethal 2, BJeLR lethal -1, Autofluor counter 2081, RN4220 kill 13, Mtb hypoxia inh 6, PrP 5UTR inh -19 and Mtb hypoxia inh growth 6.
`COc1ccc(-c2noc3c2-c2nc(-c4ccccc4C)sc2CC3)cc1` gave Sa ugtP lethal 17, BJeLR lethal 7, RN4220 kill -2.1, Mtb hypoxia inh 21 and Mtb hypoxia inh growth 3.
`Cc1coc2c(C)c3oc(=O)c(CCC(=O)NCCCN4CCOCC4)c(C)c3cc12` gave Sa ugtP lethal 7, BJeLR lethal 1, Autofluor counter 6171, RN4220 kill -0.3 and PrP 5UTR inh -14.
